MT1-MMP act inh: blockers of MT1-MMP proenzyme processing, primary screen, HT1080 RFP-PRO-GFP cells, GFP/RFP fluorescence; GFP/RFP ratio fluorescence, overnight; percent of plate control window, DMSO zero; 0.061% of 360,000 active; Matrix metalloproteinase-14 (Homo sapiens), P50281; GFP/RFP ratio change, % at 20 µM;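 active = GFP/RFP ratio change of at least 30% with cell ATP level not reduced by more than half and red fluorescence within 50% of control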; also: strong numbers were not always called active
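Material: RFP-PRO-GFP reporter HT1080 cells. Dosing: single-point 20 µM compound, 1% DMSO. Controls: DMSO and RFP-L50D-GFP cell wells. Timing: cells overnight before dosing, compound overnight, 37 °C, 5% CO2. Measure: GFP/RFP fluorescence ratio.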
UUG fidelity: modulators of yeast start codon fidelity, primary screen, whole organism, S. cerevisiae, single point, plate reader | S. cerevisiae UUG-firefly luciferase reporter, luminescence/redox ratio | activity score, % at 18.7 µM | 0.13% of 350,000 active | AID 602363, 2012;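 active = replicate mean at a twofold rise or more, about +100% in these data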;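 also: firefly luciferase made from a UUG start codon reports start codon fidelity; reporter light over untreated wells divided by growth signal over untreated wells; some hits fall short of that in this replicate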
Rce1 inhib: yeast Rce1p protease inhibitors, primary screen, biochemical, fluorescence, cell-free homogeneous | yeast membranes, quenched prenylated peptide cleavage fluorescence | calls only | 0.27% of 290,000 active | AID 2563, 2010;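 active = fall in fluorescence gain of 50% or more versus controls, with final raw signal at or below 3038400; inconclusive = same 50% fall but final raw signal above 3038400; inactive = fall in fluorescence gain under 50%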;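 also: plate controls were neutral control wells for no effect and wells lacking membranes for full effect; tested at 10 µM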
Target sequence (Q03530 whole entry, looked up): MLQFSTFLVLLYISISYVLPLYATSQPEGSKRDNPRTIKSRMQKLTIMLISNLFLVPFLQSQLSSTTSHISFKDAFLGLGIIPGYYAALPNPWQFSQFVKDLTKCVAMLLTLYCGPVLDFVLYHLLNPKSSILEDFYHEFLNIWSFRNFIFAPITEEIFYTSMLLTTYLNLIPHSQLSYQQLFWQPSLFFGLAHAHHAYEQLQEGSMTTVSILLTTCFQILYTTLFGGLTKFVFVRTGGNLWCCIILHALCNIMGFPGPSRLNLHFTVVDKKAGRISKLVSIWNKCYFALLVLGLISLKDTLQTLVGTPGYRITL
PABP polyA inh: PABP poly(A) RNA binding inhibitors, primary screen, biochemical, fluorescence polarization, uHTS | Polyadenylate-binding protein 1 (Homo sapiens), P11940 | inhibition, % at 35 µM | 1% of 290,000 active | AID 2014, 2009;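 active = 50% or more with normal probe brightness, or confirmed in later tests; inconclusive = above 50% with abnormal brightness, or retests that disagree; inactive = below 50% or failed in later tests; about a fifth of its hits are not listed in these tables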;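 also: calls also rest on retests at 20 µM and on dose response follow-up; controls were probe without protein and protein plus probe with vehicle; some compounds called inactive have numbers as strong as hits; many hits fall short of the cut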
eIF4H FP inh: human eIF4H binding inhibitors, primary screen, translation initiation inhibitor project, biochemical, uHTS, fluorescence polarization; AID 2012, 2009; 0.94% of 290,000 active; eIF4H fluorescence polarization binding assay; inhibition, % at 35 µM;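 active = 50% or more with normal probe brightness, or confirmed in later tests; inconclusive = above 50% with abnormal brightness, or retests that disagree; inactive = below 50% or failed in later tests; about a fifth of its hits are not listed in these tables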;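 also: calls also rest on retests at 20 µM and on dose response follow-up; 0% = protein and probe with vehicle and 100% = probe without protein; strong numbers were not always called active; many hits fall short of the cut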
CSC inhib: cancer stem cell viability inhibitors, primary screen, luminescence. cancer stem cell-like cells viability. inhibition, % at 7.5 µM. 1.1% of 300,000 active. AID 2717, 2010;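 active = mean at 75% or more and at least half the replicates too; inconclusive = mean and replicates disagree; tested in HMLE shEcad cells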;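 also: 0% = median of negative and 100% = median of positive control wells; the first replicate is given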
Env fusion inh: inhibitors of HIV-1 Env-driven cell-cell fusion, primary screen, HeLa-JRFL effector, CEM21 target cells, luciferase | inhibition, % at 12.3 µM | 1.1% of 360,000 active;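 active = mean replicate inhibition score of at least 50 and every replicate individually at or above 50; inconclusive = only one of the two criteria met; inactive = mean below 50 and not all replicates reaching 50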;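 also: 0% = plate neutral controls and 100% = maraviroc near 300 nM; one replicate is shown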
eIF4H FP inh retest: also measured in eIF4H FP inh; calls as there; inhibition, %; compound at 20 µM; confirmation average;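 mean of two retest wells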
PABP polyA inh retest: further read-out of PABP polyA inh, marked with its call; inhibition, %; compound at 20 µM; confirmation repeats;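 mean of two retest wells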
MT1-MMP act inh RFP: further read-out of MT1-MMP act inh, marked with its call; RFP signal change, %; measured here: RFP expression control read;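 0 = vehicle wells; hits needed this value within 50% of zero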
* marks the source's active call; other numbers are inactive results; i = inactive; ? = inconclusive; . = no result given. Not a hit list, and some 3% of all compounds hit somewhere here.

SMILES | MT1-MMP act inh | MT1-MMP act inh RFP | UUG fidelity | Rce1 inhib | PABP polyA inh | eIF4H FP inh | CSC inhib | Env fusion inh | others
CC(C)(CNC(=O)c1cccs1)CNC(=O)c1cccs1 | 1 | 5 | -3 | i | 11 | 5 | 10 | 12
CCCCNS(=O)(=O)c1ccc2nc(SCC(=O)Nc3ccccc3Cl)[nH]c2c1 | -4 | -13 | . | i | 5 | -9 | 22 | -1
O=C(COc1cccc2cccnc12)N/N=C1\SCC(=O)N1Cc1ccco1 | 6 | 5 | -6 | i | -2 | 11 | -7 | .
COc1ccccc1N/C(N)=N/c1nc(C)cc(C)n1 | 0 | 1 | . | i | -7 | 7 | 8 | 9
CN1CCSc2ccc(C(=O)NCc3cccc(Br)c3)cc21 | 2 | 1 | 1 | i | -11 | -7 | 10 | -5
Cc1noc2ncnc(Oc3ccc(C(C)(C)C)cc3)c12 | -1 | -2 | -9 | i | -19 | -3 | -19 | 9
O=C(COc1ccc(-n2cnnn2)cc1)Nc1ccc(F)cc1 | 6 | 1 | -11 | . | . | . | -14 | -2
CCOC(=O)C1=C(C)NC(=S)N(C=O)C1c1ccccc1 (stereo unspecified) | 2 | 3 | . | i | -5 | -7 | 4 | -14
Nc1cc(=O)[nH]c(SCC(=O)Nc2ccc(Cl)c(Cl)c2)n1 | 3 | 1 | -23 | i | -10 | -12 | -21 | -52
COCCC(=O)NNS(=O)(=O)c1ccc(Cl)cc1 | -3 | 4 | . | i | 3 | 6 | . | .
Cc1cc(C)c(S(=O)(=O)NC2CC3CCC2C3)c(C)c1 (stereo unspecified) | 0 | -4 | -22 | i | 0 | -22 | -15 | -8
CC(/C=C/c1ccccc1)=N/NC(=O)Cn1nnc(N)n1 | 0 | 1 | 0 | i | 0 | 1 | -15 | -15
O=C1Nc2ccc(S(=O)(=O)N(CCO)CCO)c3cccc1c23 | 6 | 4 | -9 | i | -12 | 4 | . | -27
CCC(C(=O)NC(C)(C)C)N(C(=O)c1ccc(Cl)nc1)C1CCCC1 (stereo unspecified) | 2 | 0 | -2 | i | 1 | -17 | -4 | 0
NC1=NS(=O)(=O)NC1c1cccc(Cl)c1 (stereo unspecified) | -2 | -5 | -14 | i | -11 | -2 | -21 | .
CCOc1ccccc1C(=O)NCC(=O)NNC(=O)c1cccc(S(=O)(=O)Nc2ccc(OC)cc2)c1 | -4 | -2 | . | i | . | . | . | -10
COc1ccc(S(=O)(=O)N2CCCCCC2)cc1C(=O)N(C)CCOc1ccc(Cl)cc1 | 2 | -13 | -1 | i | . | . | -4 | 20
CCC(=O)Nc1ccc(C(=O)CSc2nnc(-c3ccccc3F)n2CCc2ccccc2)cc1 | 5 | 6 | . | i | -2 | 57 | . | 22 | eIF4H FP inh retest=-9;PABP polyA inh retest=8
Cc1cn2c(=O)c(C(=O)N3CCN(c4ccccc4F)CC3)cnc2s1 | 3 | -3 | -15 | i | . | . | 5 | .
O=C(Nc1ccc2nn(-c3ccccc3)nc2c1)c1ccc2c(c1)OCCO2 | 9 | -12 | -5 | i | -14 | -5 | -8 | .
Cc1ccc2c(c1)nnn2C1CCN(C(=O)C2CCCCC2)CC1 | 2 | 1 | . | i | 1 | 1 | -9 | -26
NC(=O)c1sc2cc(C(F)(F)F)cnc2c1-c1cccs1 | 4 | 4 | -7 | i | 14 | -1 | -6 | .
CC1=NN(C(C#N)c2ccccc2)C(c2ccccc2)C1 (stereo unspecified) | 0 | 2 | -17 | i | -8 | 2 | -15 | 18
CC(=O)Nc1ccc(N=Cc2c(O)ccc3ccccc23)cc1 | 0 | 6 | -17 | i | 48 | ? | -5 | -8
COc1cc(C=C(C#N)c2ccc([N+](=O)[O-])cc2)ccc1O | 27 | 9 | 10 | . | . | . | . | -12
CC1CCCCC12NC(=O)N(CC(=O)NCCc1ccccn1)C2=O (stereo unspecified) | -1 | 4 | -17 | i | -1 | -6 | -1 | -30
CCN1C(=O)N(S(=O)(=O)c2ccc(C)cc2)[C@@H](c2ccccc2)C(C(=O)OC)=C1C | -4 | -2 | -23 | i | -1 | -7 | 38 | -6
CCc1cccc2c(C(=O)CN3C(=O)NC4(CCCCC4)C3=O)c[nH]c12 | 5 | 5 | 1 | . | . | . | 55 | 19
Cc1nn(C)cc1NC(=O)CC12CC3CC(CC(C3)C1)C2 | 7 | 11 | . | i | 2 | 1 | 9 | -2
C/C(=N\NC(=O)CSc1ncccn1)c1ccc2c(c1)OCCO2 | 5 | 9 | . | i | 2 | -1 | -5 | .
CCN(C(=O)COC(=O)c1cc(=O)c2ccccc2o1)c1c(N)n(Cc2ccccc2)c(=O)[nH]c1=O | -1 | 4 | 1 | i | . | . | -4 | .
COc1ccc(C(c2nnnn2Cc2cccs2)N2CCN(c3ccc(F)cc3)CC2)cc1OC (stereo unspecified) | 1 | -1 | -1 | i | -8 | -1 | -1 | -21
O=C(CCCN1C(=O)c2ccccc2C1=O)Nc1c(C(=O)C2CC2)oc2ccccc12 | -1 | 4 | -21 | i | -8 | 0 | -3 | -7
O=C(CCCn1c(=O)c2sccc2n(CC(=O)NCc2ccco2)c1=O)NCc1ccco1 | 2 | 4 | . | i | 19 | 23 | 6 | -5
COC(=O)c1ccc(CSc2nc3ccccc3c(=O)n2N)cc1 | -1 | -3 | -13 | i | -6 | 7 | 11 | -12
CN1CCc2c(sc3c2C(=O)NC(/C=C\c2ccccc2)N3)C1 (stereo unspecified) | -24 | 4 | -10 | i | 36 | 73 | -4 | 2 | eIF4H FP inh retest=10;PABP polyA inh retest=39
CSc1ccccc1C(=O)Nc1cc(C)ccc1C | -2 | -1 | . | i | -2 | -6 | 78* | 1
COc1ccc(N2CCN(C(=O)CN3c4cccc5cccc(c45)S3(=O)=O)CC2)cc1 | -2 | -5 | -13 | . | . | . | -7 | .
O=C(O)CNC1=NCCCCC1 | 2 | 6 | -20 | i | -4 | -11 | -8 | .
O=c1cc(CN2CCC3(CC2)OCCO3)c2c(ccc3ccccc32)o1 | -3 | -5 | -9 | i | 2 | 3 | -1 | 5

Molecules listed so far that contain a cyano group:
SMILES | MT1-MMP act inh | MT1-MMP act inh RFP | UUG fidelity | Rce1 inhib | PABP polyA inh | eIF4H FP inh | CSC inhib | Env fusion inh | others
CC1=NN(C(C#N)c2ccccc2)C(c2ccccc2)C1 (stereo unspecified) | 0 | 2 | -17 | i | -8 | 2 | -15 | 18
COc1cc(C=C(C#N)c2ccc([N+](=O)[O-])cc2)ccc1O | 27 | 9 | 10 | . | . | . | . | -12

Later entries:
SMILES | MT1-MMP act inh | MT1-MMP act inh RFP | UUG fidelity | Rce1 inhib | PABP polyA inh | eIF4H FP inh | CSC inhib | Env fusion inh | others
CCNc1nc(OC)nc(N2CCC(Cc3ccccc3)CC2)n1 | 7 | -11 | -28 | i | 8 | -3 | -5 | .
O=S(=O)(Nc1ccc2nc(N3CCOCC3)sc2c1)c1ccccc1 | 5 | -7 | -2 | . | . | . | . | -57
COc1cccc(NC(=O)CCNC(=O)Cn2ccc3ccccc3c2=O)c1 | 0 | 4 | . | i | -4 | -2 | -2 | 7
O=C(COc1ccc(Cl)cc1)NCc1nnc(SCC(=O)NCC2CCCO2)o1 (stereo unspecified) | 6 | 2 | 199* | i | 0 | -6 | -11 | 4
N#Cc1cc2c(nc1SCc1nc3ccccc3[nH]1)CCC2 | . | . | . | i | -7 | 0 | 5 | .
CCCc1ccc2oc(C(=O)NCCN3CCCC(C(N)=O)C3)c(C)c2c1 (stereo unspecified) | 6 | 3 | -9 | i | 6 | -8 | 13 | -6
CC(=O)Nc1ccc2nc(-c3ccccn3)[nH]c2c1 | 6 | 4 | -25 | i | -4 | -5 | 10 | -28
COc1ccc(C2C3=C(Nc4ncnn42)c2ccccc2CC3)cc1OC (stereo unspecified) | . | . | . | i | 2 | 3 | 16 | .
Cc1ccc(N(CC(=O)Nc2ccc(Br)c(C)c2)S(=O)(=O)c2c(C)[nH]c(=O)[nH]c2=O)cc1 | -1 | -2 | 7 | i | . | . | -12 | -7
O=C(CN1CCc2ccccc2C1)c1cccs1 | -2 | 9 | -1 | i | 46 | 4 | -12 | .
COc1cc(/C=N/NC(=O)COc2c(C)cc([N+](=O)[O-])cc2C)ccc1OC(=O)c1ccccc1Br | -21 | -21 | . | i | -2 | -8 | 5 | 13
N#CC1=C(N)Oc2cc(N)ccc2C1C1CC=CCC1 (stereo unspecified) | 1 | -10 | -6 | . | 5 | -5 | 63 | -213
O=C1C2CCCCN2C(=O)N1CCN1CCN(c2ccc([N+](=O)[O-])cc2)CC1 (stereo unspecified) | 3 | -3 | 1 | . | -8 | -2 | -4 | .
CC(C)C(=O)N1CCN(c2ccccc2NC(=O)c2cc([N+](=O)[O-])ccc2N2CCOCC2)CC1 | -5 | -3 | . | i | -11 | -2 | -3 | 7
CCOc1cc(C(=O)NCCOC)ccc1OC | -2 | 1 | -4 | . | -8 | 2 | -10 | .
CCOC(=O)N1CCN(C(=O)C(C)n2nc(C)n3c(cc4sccc43)c2=O)CC1 (stereo unspecified) | 6 | 6 | 6 | i | 0 | 4 | -3 | .
CCOC(=O)C(NC(C)=O)(Nc1ccc(F)cc1)C(F)(F)F (stereo unspecified) | 3 | 3 | -10 | i | 0 | 3 | 15 | .
CC1CCCCN1CCNC(=O)C1CCN(S(=O)(=O)c2cccc3nsnc23)CC1 (stereo unspecified) | 6 | 10 | -18 | i | 2 | 4 | -5 | 0
Cc1cc(OC(=O)c2ccccc2[N+](=O)[O-])c([N+](=O)[O-])c(=O)[nH]1 | 1 | 1 | -13 | i | 5 | -2 | -6 | -11
CCCn1c(SCC(=O)Nc2ccc3c(c2)CCC3)n[nH]c1=O | 1 | 1 | 7 | i | -2 | -6 | -6 | 0
CCc1ccccc1NC(=O)COc1cccc2ccc(C)nc12 | -6 | -2 | -10 | i | 6 | 14 | -7 | -3
Cc1cccc(-c2nnc(-c3cccc(NC(=O)Cc4cccs4)c3)o2)c1 | 4 | -11 | 0 | i | -3 | -8 | 33 | .
O=C(O)CC1Oc2ccc(Cl)cc2NC1=O (stereo unspecified) | 4 | 5 | -4 | i | -12 | -10 | -7 | -8
Cc1ccc(Nc2cc(=O)[nH]c(=O)[nH]2)cc1Cl | -2 | 4 | -13 | i | 7 | 2 | -13 | 5
O=C(Nc1cccc(S(=O)(=O)N2CCCCCC2)c1)C1CC(=O)N(c2ccc3c(c2)OCCO3)C1 (stereo unspecified) | -4 | -14 | -6 | i | . | . | -3 | -9
CCOc1ccccc1C(=O)Nc1nnc(COC)s1 | 8 | 6 | -19 | i | 5 | 0 | 7 | .
CC(=O)NC(CC(=O)N(C)Cc1cccc(Cl)c1Cl)c1ccccc1 (stereo unspecified) | -5 | 0 | 6 | i | -12 | -8 | -1 | 18
CCN(c1ccccc1)S(=O)(=O)c1ccc(C(=O)Oc2ccc(C(C)=O)cc2)cc1 | -1 | 2 | -15 | i | -6 | -4 | -12 | .
Cc1ccccc1-c1nc(P(=O)(c2ccccc2)c2ccccc2)c(N2CCOCC2)o1 | -7 | -8 | . | i | 11 | 2 | -8 | 17
